From PubChem BioAssay
Menin MLL FP FL = menin-MLL binding inhibition, fluorescein peptide; 290,000 tested, under 10 active; FP activity change, % at 61.4 µM; Fluorescence polarization, fluorescein-MLL peptide displacement from menin; inconclusive = falling polarisation curve, or a change in total fluorescence; inactive = total fluorescence flat and polarisation flat or rising; no compound was filed as active; the % refers to the polarisation; negative = inhibition;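 further: % of control where 0% means no effect; inhibitors lower the polarisation; unlabelled MLL peptide was the positive control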
Sfp PPTase inh = inhibitors of Bacillus subtilis Sfp phosphopantetheinyl transferase. Q9F4F7. Potency, µM, for the others: max response, negative = inhibition, most hits filed as inhibitors. 310,000 tested, 3.5% active. AID 1490. Biochemical Sfp PPTase activity, qHTS; active means well fitted inhibition curve with a large enough effect; inconclusive means small, poorly fitted or top-dose-only effect, or another doubt; inactive means no such curve, though single readings can be large or run the other way;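 further: the enzyme is Sfp with the accession as filed and its product quenches rhodamine fluorescence; potency means the concentration at half of the fitted maximal effect; 0% = enzyme reaction without inhibitor and -100% = no enzyme wells; top concentration of the series not given in the record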
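Fluorescence-quenching assay with 15 nM Sfp, 5 uM rhodamine-CoA and 12.5 uM BHQ-2-labelled ybbR peptide in pH 7.6 Hepes/MgCl2 buffer. Enzyme was pre-incubated with compound for 15 min at room temperature. Rate was taken from the 30-min fluorescence change (525/598 nm).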
TRPML1 inh = blocks the human TRPML1 channel. activity change, negative = inhibition, % (no concentration beside the values). TRPML1-inducible cells, Ca2+ dye fluorescence, FDSS; hits give low values; inhibition of EC80 agonist-evoked calcium signal. Q9GZU1. 390,000 tested, 0.02% active; in the data active means activity change below about -50%; inconclusive means about -30% to -50%; inactive means above about -30%;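 further: stimulus is agonist 54-4 at its EC80 concentration; on the % scale 0 is the no-effect control and ±100 the full control effect; compound concentration not given in the record; the text of the record puts the active cut at -80%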
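TRPML1-DL cells, Tet-induced overnight (~16 h, 37 °C) at 1,500 cells/well, were loaded with Ca8 no-wash dye plus quencher for 45-90 min at room temperature. Compounds were pinned during FDSS kinetic reading; agonist 54-4 at EC80 (4 uM final) then added.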
ClpP mod = qHTS Assay for Activators of ClpP; 340,000 tested, 1.9% active; Potency, µM (top dose mostly 57.5 µM), for the others: at the top dose activity change, negative = active; ATP-dependent Clp protease proteolytic subunit (Bacillus subtilis (strain 168)), P80244; purified B. subtilis ClpP, FRET peptide cleavage, 20 min; active = well fitted falling curve with a large enough effect; inconclusive = small, poorly fitted or top-dose-only effect; inactive = no such curve, though single readings can be large or run the other way; further: potency means the concentration at half of the fitted maximal effect; the source files actives as falling curves though it sought activators and does not explain the sign; nearly all actives have a fitted effect of over 65% in size; many hits overshoot -100%
Target sequence (P80244 whole entry, looked up): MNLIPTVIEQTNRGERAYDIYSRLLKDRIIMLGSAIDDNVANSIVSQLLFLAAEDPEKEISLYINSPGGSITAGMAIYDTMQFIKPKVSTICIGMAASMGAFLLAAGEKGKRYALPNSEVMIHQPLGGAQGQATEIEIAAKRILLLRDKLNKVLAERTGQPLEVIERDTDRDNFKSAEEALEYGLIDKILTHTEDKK
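Buffer: 100 mM Tris/HCl pH8, 100 mM KCl, 0.05% low protease BSA, 2.5% glycerol, 0.01% Tween-20. ClpP 10 microg/mL final; 20 min RT; delta FRET normalized to ADEP and DMSO controls.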
TRPML1 ag = human mucolipin-1 channel agonism; TRPML1-expressing cells, Ca2+ dye fluorescence, FDSS; host cell line not named in the record; reference of the full effect not given here; activation, % (no concentration beside the values); Q9GZU1; 410,000 tested, 0.12% active; in the data active = activation above about 50%; inconclusive = about 30% to 50%; inactive = below about 30%; further: 0% is about no effect; the text of the record puts the active cut at 80%
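Calcium fluorescence on an FDSS kinetic reader gave the read-out. Tet-induced TRPML1-DL cells were plated overnight, dye-loaded (Ca8 with quencher, 45-90 min, room temperature, dark), then read 110 s after compound addition, and again 110 s after 4uM final 54-4 (EC80).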
TRPV1 potentiator = enhances activation of the human vanilloid receptor TRPV1 | potentiation, % at 8.33 µM | TRPV1-expressing cells, Fluo-8 calcium influx, capsaicin EC20 potentiation; host cell line not named in the record; control for the full effect not named in the record | 320,000 tested, 0.02% active; active means potentiation above 80%; inconclusive means 30% to 80%; inactive means below 30%; further: 0% is about no effect
Target sequence (Q8NER1 whole entry, looked up): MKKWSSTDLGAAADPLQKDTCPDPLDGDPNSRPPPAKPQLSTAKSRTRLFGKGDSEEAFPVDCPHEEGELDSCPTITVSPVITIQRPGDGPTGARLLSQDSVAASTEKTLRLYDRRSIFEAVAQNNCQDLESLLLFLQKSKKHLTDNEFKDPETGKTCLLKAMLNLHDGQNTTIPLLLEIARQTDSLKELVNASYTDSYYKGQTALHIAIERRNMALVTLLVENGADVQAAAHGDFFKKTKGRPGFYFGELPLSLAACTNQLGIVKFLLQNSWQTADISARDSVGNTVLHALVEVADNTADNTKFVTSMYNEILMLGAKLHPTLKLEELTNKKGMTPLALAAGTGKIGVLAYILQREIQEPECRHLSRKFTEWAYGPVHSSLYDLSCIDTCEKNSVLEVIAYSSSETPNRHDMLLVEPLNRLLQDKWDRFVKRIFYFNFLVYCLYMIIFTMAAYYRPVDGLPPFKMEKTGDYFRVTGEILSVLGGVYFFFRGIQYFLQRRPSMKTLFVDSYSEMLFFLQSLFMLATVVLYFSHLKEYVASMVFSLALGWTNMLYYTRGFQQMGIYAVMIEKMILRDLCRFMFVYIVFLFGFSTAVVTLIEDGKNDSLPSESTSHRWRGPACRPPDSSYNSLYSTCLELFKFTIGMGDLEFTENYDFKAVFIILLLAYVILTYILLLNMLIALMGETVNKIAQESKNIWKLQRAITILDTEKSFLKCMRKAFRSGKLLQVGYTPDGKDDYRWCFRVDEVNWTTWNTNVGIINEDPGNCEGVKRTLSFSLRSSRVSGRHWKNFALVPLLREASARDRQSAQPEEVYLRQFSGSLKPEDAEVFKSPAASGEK
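TRPV1-expressing cells were cultured overnight at 35.5C and loaded with Fluo-8 calcium dye for 40 to 90 min at room temperature. After a 10 s baseline, compound was added and calcium influx was read kinetically for 3 min (ex 480/em 520 nm).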
PINK1 modulator = PINK1 expression modulation; Potency, µM (highest dose often 76.6 µM), for inactives: at the top dose activation (PINK1 increase), actives largely listed as activators; PINK1 immunofluorescence, high-content cytometry, 24 h; 410,000 tested, 0.2% active; active = well fitted activation curve with a large enough effect; inconclusive = small, poorly fitted or top-dose-only effect; inactive = flat fitted curve, though single readings scatter; cell line not stated here;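 further: potency means the concentration at half of the fitted maximal effect; % of control where 0% means no effect; nearly all actives have a fitted effect of over 65% in size; a mitochondrial uncoupler was the plate control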
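Compound titrations (5 concentrations, 24 h) on a stable cell line; DMSO and CCCP controls. Endpoint: fixed-cell PINK1 immunofluorescence with mitochondrial, cell and nuclear markers, scanned by microplate cytometer.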
* marks the source's active call; other numbers are inactive results; ? = inconclusive; nt = no result given; [ ] = remark or other dose.

SMILES	Menin MLL FP FL	Sfp PPTase inh	TRPML1 inh	ClpP mod	TRPML1 ag	TRPV1 potentiator	PINK1 modulator
O=C([O-])c1cc(-c2ccccc2)cc(-c2ccccc2)[n+]1CCc1ccc(Cl)cc1	nt	nt	46.6	-8.8%	0.6	nt	?
COc1ccccc1N(CC(O)Cn1c2ccccc2c2ccccc21)S(=O)(=O)c1ccccc1 (configuration not stated)	2.5	10.0%	74.1	nt	0.8	10.7	1.4%
CC1(C)NC(=O)N(CCCCOc2ccc3c(c2)CCC3)C1=O	1.8	1.9%	4.9	0.5%	0.2	-9.8	6.8%[38.3 µM]
Cc1occc1-c1nnc(SCC(=O)NCc2ccco2)n1CC(C)C	5.2	-21.0%	14.3	-4.8%	-0.2	-5.5	0.8%
CCCC/C=C/[C@H](c1ccccc1)[C@H](CO)Cc1ccc2ccccc2c1	1.9	0.5%	8.3	nt	1.6	nt	nt
CCCCn1cnc2sc(-c3ccccc3)cc2c1=O	-2.3	23.3%	-2.8	-7.1%	-0.4	-15.5	-0.6%
COc1ccc(C=NNC(=O)c2ccccc2OCc2ccc(F)cc2)c(OC)c1	nt	nt	21.6	2.0%	3.7	nt	1.9%
COc1ccccc1NC(=O)CN1CCN(CC(=O)Nc2ccc(S(N)(=O)=O)cc2)CC1	3.1	14.6%	-16.4	0.7%	0.2	0.3	0.3%
COc1ccc(OCc2csc(N)n2)cc1	-0.3	-6.3%	9.0	nt	0.1	10.8	3.0%
COc1ccc(CCNC(=O)CN2C(=O)NC3(CCOc4ccccc43)C2=O)cc1 (configuration not stated)	nt	nt	10.5	nt	0.9	28.5	1.5%
S=C(NCCc1ccccc1)N/N=C/c1c(Cl)cccc1Cl	0.3	8.4%	6.5	0.6%	3.2	-5.3	3.8%
CCOc1ccc2c(c1)c(=O)c(C(=O)c1ccccc1)cn2Cc1ccccc1	nt	nt	3.6	-5.3%	-0.2	nt	5.3%
CCN(C(=O)CN1CCCCC1)C1(C)C(=O)c2ccccc2C1=O	4.2	13.1%	-0.5	nt	0.2	8.7	1.8%
COc1ccc(NS(=O)(=O)c2cc(NC(=O)c3cccnc3Cl)ccc2N2CCCC2)cc1	-0.5	8.6%	9.2	-1.3%	-0.2	16.6	0.3%
COc1cc(CNC[C@H]2O[C@@H](n3ccc(N)nc3=O)[C@H](O)[C@@H]2O)ccc1OCc1ccc(C)cc1	nt	nt	-15.5	0.7%	-0.4	nt	1.2%
COc1ccc(S(=O)(=O)N(C)CC(=O)NCCc2ccccc2)cc1OC	-0.4	14.1%	nt	-2.9%	nt	2.7	-1.1%
CCC1CC2(C)NC(=O)c3c(sc4c3CC(C)(C)OC4)N2C1=O (configuration not stated)	0.7	15.8µM*	66.5	-2.8%	0.7	1.0	-0.6%
CCOC(=O)c1ccc(Cl)c(NC(=O)c2ccc(-c3ccccc3)cc2)c1	4.1	1.4%	4.9	-0.6%	2.4	20.0	nt
COc1ccc(-c2c(C#N)sc(C(N)=O)c2-c2ccc(OC)cc2)cc1	0.4	16.0%	38.4	0.5%	1.4	-7.3	3.4%
Cc1ccc(Cl)cc1N1CCN(C(=O)c2c(C)oc3ncnc(N4CCOCC4)c23)CC1	nt	nt	-1.2	0.3%	3.6	nt	9.9%
COc1ccc(CN2C(=O)c3cccnc3C2Nc2cc(Cl)c(OC)cc2OC)cc1 (configuration not stated)	5.0	-27.4%	-6.6	2.1%	-0.2	-9.2	2.0%[38.3 µM]
COC(=O)Cc1ccc(NC(=S)N2CCCC(C)C2)cc1 (configuration not stated)	6.2	1.4%	6.1	nt	-0.4	-4.8	1.3%
CCC(C)(C)NC(=O)c1ccc2c(c1)N(CC(=O)N1CCCC1)C(=O)C(C)(C)O2	2.7	25.8%	-6.9	0.2%	-0.1	-10.4	-0.5%
CC(=O)c1ccc(N2CCN(c3ccc(S(=O)(=O)NCCCN(C)C)cc3[N+](=O)[O-])CC2)cc1	0.7	-13.3%	3.0	1.5%	1.8	-1.0	2.3%
O=c1cc(-c2ccc(Cl)c(Cl)c2)[nH][nH]1	3.1	15.7%	18.0	-0.2%	0.9	8.1	0.3%
CC(C)CCNC(=O)C1CCC(CNc2c(N3CCC(C)CC3)c(=O)c2=O)CC1 (configuration not stated)	10.8	21.1%	27.2	nt	0.3	-0.6	0.2%
Nc1ccc(/C=C/C(=O)c2cccs2)cc1	?	5.3%	-4.1	nt	21.7	-38.4	4.4%
CCN(Cc1ccccc1)c1ccc(N=Nc2nn(C)c(C)c2[N+](=O)[O-])cc1	1.3	-6.2%	33.5	0.9%	1.6	-1.6	-0.3%
CCN1C(=O)[C@H]2[C@@H](c3ccc(-c4ccccc4)cc3)N[C@@](C)(C(=O)OC)[C@H]2C1=O	nt	nt	7.0	-1.1%	-0.4	-12.5	-0.9%
COc1cc2c3nc4n(c(=O)c3n(CC(=O)NCC3CCCO3)c2cc1OC)CCS4 (configuration not stated)	2.8	3.0%	23.0	nt	-0.2	-6.5	-1.1%
COc1ccccc1[C@@H]1C(c2ccccc2)=NN(c2ccccc2)[C@H]1C(=O)N1CCOC1=O	7.2	1.3%	1.4	5.1%	-0.7	nt	1.3%
Cc1ccc(-c2nnn(CC(=O)N(CC(=O)NC3CCCC3)c3cccc(F)c3)n2)o1	1.7	14.6%	26.2	nt	0.4	-0.6	-0.3%
CC1(C)CC(=O)C2=C(C1)OC(N)=C(C#N)C2C1C=CCCC1 (configuration not stated)	-0.4	3.6%	10.0	1.3%	0.5	?	0.9%
Cc1ccc(S(=O)(=O)NCCCC(=O)N2CCC(C)CC2)cc1	-0.2	5.4%	-9.8	-3.0%	0.7	-20.1	-0.5%
CN(C)C(=O)C(=O)c1cccn1-c1cccc(Cl)c1C#N	1.8	8.2%	?	-6.3%	0.1	-8.2	-0.6%
O=C(NCc1ccco1)c1cccc2c1C(=O)N(C1CCCCC1)C2	-0.7	20.6%	24.6	0.0%	0.5	11.2	0.2%
Cn1ncc2c(NNC(=O)c3ccc(Cl)cc3Cl)ncnc21	0.8	-8.1%	17.9	-0.9%	0.9	13.4	6.1%
CCOC(=O)c1c(N)n(-c2cc(C)cc(C)c2)c2nc3ccccc3nc12	nt	nt	0.5	4.4%	-0.3	nt	-1.6%
CCCN(CCC(=O)Nc1ccccc1F)CC1CC1	-0.3	6.2%	2.8	0.9%	0.9	-10.6	0.8%
Cc1cc(C)cc(OCCNC(=O)CCc2ccccc2)c1	2.7	5.2%	-11.1	-0.8%	0.2	1.4	-1.3%
CCCc1nnc(SCC(=O)N2CCCCC2C)n1CC (configuration not stated)	3.6	12.9%	-7.0	-1.5%	0.6	1.6	-1.3%
CCN1CCCC1CN(Cc1cc2cc(C)cc(C)c2[nH]c1=O)C(=O)Nc1ccccc1OC (configuration not stated)	1.4	-17.9%	-2.0	-15.7%	-0.3	10.6	-1.8%
c1ccc(-c2ccccc2OCCN2CCCCC2)cc1	0.4	-19.0%	-29.5	-0.3%	-1.9	2.6	0.3%
NNC(=O)c1ccc2c(c1)S(=O)(=O)NNC2=O	-1.0	-5.3%	-6.9	-9.3%	-0.4	7.9	1.5%
CCOC(=O)c1cc(S(=O)(=O)N2CCN(c3ccccc3)CC2)[nH]n1	nt	nt	0.1	-1.3%	-0.4	nt	1.1%
COc1ccc(C(=O)CNc2ccccc2Br)cc1	0.2	-8.1%	-6.3	nt	-0.3	-8.4	4.6%
O=c1cc(CN2CCN(c3ccccc3F)CC2)c2c(ccc3ccccc32)o1	nt	nt	14.7	28.2µM*	0.2	nt	1.2%
Cc1cccc(OCC(=O)Nc2ccc3c(c2)nc2n3CCOC2)c1	-1.0	5.7%	-5.1	1.1%	0.0	10.8	2.6%
O=C(c1ccccc1)c1ccc2c(c1)OCCCO2	-2.0	-4.2%	13.8	nt	1.2	-20.0	1.9%
CC(=O)c1cccc(Nc2c3c(nc4ccccc24)CCC3)c1	6.9	-10.4%	15.1	-1.9%	1.1	14.1	6.2%

Whole records as entered above. Order of values: Menin MLL FP FL | Sfp PPTase inh | TRPML1 inh | ClpP mod | TRPML1 ag | TRPV1 potentiator | PINK1 modulator
Results for NNC(=O)c1ccc2c(c1)S(=O)(=O)NNC2=O = -1.0 | -5.3% | -6.9 | -9.3% | -0.4 | 7.9 | 1.5%
Results for O=c1cc(CN2CCN(c3ccccc3F)CC2)c2c(ccc3ccccc32)o1 = nt | nt | 14.7 | 28.2µM* | 0.2 | nt | 1.2%
Results for CCOC(=O)c1cc(S(=O)(=O)N2CCN(c3ccccc3)CC2)[nH]n1 = nt | nt | 0.1 | -1.3% | -0.4 | nt | 1.1%

Following part
SMILES	Menin MLL FP FL	Sfp PPTase inh	TRPML1 inh	ClpP mod	TRPML1 ag	TRPV1 potentiator	PINK1 modulator
CC(C)C(NC(=O)c1ccccc1NC(=O)c1ccccc1)C(=O)NNC(=O)c1ccncc1 (configuration not stated)	-0.6	3.6%	-23.1	-2.9%	0.2	-8.0	-1.5%
COc1cc(C(=O)NC(=S)Nc2csc(-c3ccc(F)cc3)n2)cc(OC)c1OC	-1.3	-3.6%	9.8	0.2%	2.0	14.5	1.6%
Cc1ccc(N2C(=O)C3C4C=CC(CC4)C3C2=O)cc1Br (configuration not stated)	0.8	16.4%	-2.5	nt	0.2	-15.5	0.4%
COc1ccc(-c2csc(NC(=O)c3ccc(S(=O)(=O)N4CCc5ccccc5C4)cc3)n2)cc1	8.5	15.2%	2.9	-1.6%	-0.6	3.4	5.1%
CCCCn1c(N)nc2ccccc21	2.6	4.0%	13.1	-0.6%	0.1	5.9	-5.5%[38.3 µM]
O=S1(=O)CCOC[C@H](Cc2ccccc2)N1Cc1cccc(C(F)(F)F)c1	nt	nt	6.1	-2.0%	2.1	nt	4.6%
COC(=O)CC1Oc2ccccc2-n2cc(-c3ccc(F)cc3)nc21 (configuration not stated)	nt	nt	-5.5	13.7%	1.6	nt	3.2%
O=C(CCN1C(=O)/C(=C/c2ccccc2F)SC1=S)NCCc1ccc(O)cc1	nt	11.0%	-4.7	2.6%	-1.1	-1.6	2.4%
Cc1ccc(OCC(=O)Nc2ccc(NC(=O)c3ccco3)cc2)c(C)c1	-5.3	3.2%	-12.2	0.0%	-1.6	1.4	6.7%
